FGF22 binding: binders of recombinant human FGF22 by thermal shift; AID 651658; 340,000 tested, 1.5% active; Q9HCT0; calls only at 9.99 µM; SYPRO orange fluorescence; percent of sucrose octasulfate shift, DMSO zero;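 active = melting point raised past a set limit in the mean and every replicate; inconclusive = no clear call; three in four hits are not shown here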
Target sequence (Q9HCT0 whole entry, looked up): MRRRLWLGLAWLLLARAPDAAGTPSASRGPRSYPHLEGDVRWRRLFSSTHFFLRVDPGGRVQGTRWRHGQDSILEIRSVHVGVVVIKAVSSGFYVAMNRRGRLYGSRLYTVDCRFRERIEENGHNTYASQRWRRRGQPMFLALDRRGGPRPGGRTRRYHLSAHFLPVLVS
rRNA inh HTS: inhibits bacterial ribosomal RNA function over humanized ribosomes; E. coli WT GFP vs humanized-ribosome RFP mutants, fluorescence, 24 h; stronger effect = lower value; DMSO median 0, no signal -100; GFP signal change (wild-type ribosome), % (no concentration beside the values); 350,000 tested, 1.6% active; AID 720706;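 active = significant combined selectivity score with lowered wild-type GFP, culture density cut under 30%, mutant RFP and density less affected; inactive = any of these conditions unmet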; note: one replicate is shown; some compounds called inactive have numbers as strong as hits
Beta2AR agonist: human beta-2 adrenergic receptor agonism by FAP; Am2.2-beta2AR cells, FAP receptor internalization, flow cytometry; reference of the scale not given here; P07550; response, % (concentration not given with the values); 340,000 tested, 0.43% active;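 active = response above a set limit, near 3 SD of response in nonfluorescent compounds, cut at about 42% in these data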;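 note: stock transfer was 100 nL into about 11 µL; a reference agonist was the positive control; negative values mostly stem from fluorescent compounds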
Target sequence (P07550 whole entry, looked up): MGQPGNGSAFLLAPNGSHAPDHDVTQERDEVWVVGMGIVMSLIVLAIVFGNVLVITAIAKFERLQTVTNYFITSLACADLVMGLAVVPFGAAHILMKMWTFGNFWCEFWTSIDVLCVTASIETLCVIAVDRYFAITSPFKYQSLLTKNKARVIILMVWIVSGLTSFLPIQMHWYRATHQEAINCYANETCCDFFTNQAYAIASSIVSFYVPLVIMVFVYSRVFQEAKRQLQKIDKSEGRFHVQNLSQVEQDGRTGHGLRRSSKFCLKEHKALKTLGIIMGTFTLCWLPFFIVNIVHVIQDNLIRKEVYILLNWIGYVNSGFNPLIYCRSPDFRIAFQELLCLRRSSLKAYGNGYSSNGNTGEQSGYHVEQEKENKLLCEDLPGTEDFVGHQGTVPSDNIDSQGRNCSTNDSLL
E coli growth: inhibitors of Escherichia coli growth. OD600 absorbance (test concentration not listed). 330,000 tested, 0.21% active. OD600, 23 h; stronger effect = lower value. AID 1053175;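 active = OD600 absorbance below the run mean of sample wells minus 3.6 SD, in any replicate, cut at about 0.56 in these data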;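 note: stock transfer was 300 nL into about 60 µL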
ALR H2O2 inh: inhibitors of human sulfhydryl oxidase ALR | AID 485317 | purified ALR, DTT oxidation, H2O2 HRP-luminol luminescence | 290,000 tested, 3.8% active | P55789 | inhibition, % (concentration not given with the values);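 active = mean and each replicate at 75% or more; inconclusive = only one of the two met; inactive = neither met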;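 note: stock transfer was 7.5 nL into about 7.5 µL; 0% = neutral wells and 100% = wells with inactivated enzyme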
HNF4A DNA FP: change in binding of human HNF4 alpha to DNA; HNF4a-FITC DNA binding, fluorescence polarization, 1 h; activity change, % at 10 µM; P41235; 360,000 tested, 0.3% active; AID 1224865; in the data active = activity change above about 30%, passing the limit was not always enough;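 note: controls were the assay level and a saturating level of protein; the project sought stronger binding though the title names inhibitors; some compounds called inactive have numbers as strong as hits; positive values seem to mean higher polarization but the record does not say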
UCH37 DUB inh: human UCH37 deubiquitinating enzyme inhibition. inhibition, % (concentration not given with the values). 330,000 tested, 0.33% active. purified proteasome/UCH37, Ub-AMC cleavage fluorescence. AID 588478. Q9Y5K5;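 active = mean of two replicates above 20%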;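 note: 0% = compound-free wells with enzyme and 100% = wells lacking proteasome; stock transfer was 100 nL into about 20 µL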
Target sequence (Q9Y5K5 whole entry, looked up): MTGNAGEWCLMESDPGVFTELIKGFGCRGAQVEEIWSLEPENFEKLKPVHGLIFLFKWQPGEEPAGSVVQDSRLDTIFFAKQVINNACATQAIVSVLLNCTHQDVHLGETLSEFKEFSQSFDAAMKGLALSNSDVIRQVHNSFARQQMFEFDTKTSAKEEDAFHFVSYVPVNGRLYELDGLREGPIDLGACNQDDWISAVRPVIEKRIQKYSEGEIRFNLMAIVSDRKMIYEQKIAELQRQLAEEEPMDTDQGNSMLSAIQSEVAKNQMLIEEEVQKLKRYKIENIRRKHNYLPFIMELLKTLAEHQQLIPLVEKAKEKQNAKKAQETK
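Material: human UCH37 enzyme supplied as purified proteasome complex. Measure: % inhibition of Ub-AMC cleavage fluorescence. Medium: pH 7.4 Tris-HCl (50 mM) with ovalbumin, ATP-MgCl2, DTT. Times: 30 min preincubation with enzyme, 25 min cleavage at room temperature. Detection: AMC fluorescence intensity at 355/460 nm.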
rRNA inh HTS OD600: further read-out of rRNA inh HTS, marked with its call; OD600 change, %; measured here: OD600 growth;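 optical density of the mix in the first replicate; 0 = DMSO median and -100 = no signal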
rRNA inh HTS RFP: further read-out of rRNA inh HTS, marked with its call; RFP signal change, %; measured here: RFP humanized mutant strains;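 first replicate; 0 = DMSO median and -100 = no signal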
Active calls of the source: *; i = inactive; ? = inconclusive; · = no result given. The list is partial; count on the stated rates, not on these rows.

Compound	FGF22 binding	rRNA inh HTS	rRNA inh HTS OD600	rRNA inh HTS RFP	Beta2AR agonist	E coli growth	ALR H2O2 inh	HNF4A DNA FP	UCH37 DUB inh
CCCCCCC(C)n1[nH]c(=O)c2c(C)cc(=O)[nH]c21 (stereo unspecified)	·	-0.9	7.3	2.5	-1.2	·	-14.3	1.3	·
COc1ccc(OCC(=O)Nc2ccc(N3CCN(Cc4ccccc4F)CC3)cc2)cc1	i	10.5	1.3	-2.2	-5.2	0.695	-1.9	-1.3	-0.4
COc1ccc(OC)c(S(=O)(=O)NCC(c2ccco2)N2CCc3ccccc3C2)c1 (stereo unspecified)	i	-7.4	-22.5	2.1	-0.3	0.705	-1.9	0.2	2.0
COc1cc2nc(C3CCC3)n(NC(=O)c3ccco3)c(=O)c2cc1OC	i	-0.6	1.6	-10.4	-2.5	0.712	·	-1.7	-1.3
CCOC(=O)CCc1c(C)n(CC)c2cc(-c3ccccc3OC)nn2c1=O	·	·	·	·	12.1	0.728	-2.2	-5.4	-48.6
COc1ccc(CC(=O)Nc2ccc(F)c(F)c2F)cc1S(=O)(=O)N1CCOCC1	i	2.4	10.9	-0.8	-1.6	0.692	·	3.9	2.4
Cc1cccc(NC(=O)Cn2nc(-c3cccs3)ccc2=O)c1C	i	1.1	1.9	-0.7	-2.8	0.704	-2.6	0.8	-7.7
CCOc1cccc(-c2cnc3cccnn23)c1	i	4.9	-5.8	-1.1	·	·	·	-1.5	·
CCOC(=O)c1c(S(=O)(=O)NCC(=O)Nc2cc(C)ccn2)c(C)n(C)c1C	i	4.5	5.4	2.0	6.3	0.585	-1.2	-7.1	1.7
CCCCN1C=C(C(=O)c2ccccc2)C(=O)CC1	i	6.3	-0.6	2.6	4.7	0.657	·	-2.8	2.8
COc1ccc(N2CCN(c3ccnc4cc(Cl)ccc34)CC2)cc1	i	-1.8	-25.8	-1.7	-10.2	0.679	9.0	-0.7	-0.4
Cc1nn(-c2ccccc2)c(Cl)c1C(=O)N(C)c1nc(-c2ccc(F)cc2)cs1	·	·	·	·	·	0.701	2.5	·	4.3
COc1ccc(N(C)C(=O)C2CCN(S(=O)(=O)c3cccc4nonc34)CC2)c(OC)c1	i	7.3	2.8	-1.4	-0.4	0.705	-28.7	2.6	3.0
Cc1ccc(S(=O)(=O)N2CCOCC2)cc1NC(=O)CSc1n[nH]c(N)n1	i	19.9	4.5	2.5	5.8	0.703	-2.6	4.0	1.9
O=C(Oc1ccc(N(C(=O)c2ccncc2)S(=O)(=O)c2cccs2)cc1)c1ccncc1	i	-1.9	-4.6	5.2	-0.6	0.711	45.0	-2.4	5.3
CN(C)CCn1c2c(c(SCC(=O)N3CCc4ccccc43)nc1=O)CCCC2	i	2.0	7.6	0.2	-13.5	0.704	7.8	0.3	4.8
CCN(CC)S(=O)(=O)c1cc(NC(=O)CSc2n[nH]c(N)n2)ccc1C	i	·	·	·	8.2	0.694	-5.2	3.3	5.5
CC(=O)c1ccc(NS(=O)(=O)Cc2ccc(Cl)cc2)cc1	·	·	·	·	3.1	0.731	-0.2	0.5	6.1
COC(=O)c1c(-n2c(C)cc(C=O)c2C)sc2c1CCCC2	i	-44.5	-54.1	-10.6	13.9	0.698	7.4	0.7	0.3
O=C1NC[C@@H](CCCCN2C[C@H](Cc3ccccc3)N(CCC3CCCCC3)C(=O)C2=O)N(CC2CCCCC2)C1=O	i	-0.6	5.3	-3.1	·	·	·	0.8	·
Cc1cc(NC(=O)Nc2ccc(Cl)cc2)n(C)n1	i	4.5	1.1	-1.9	1.2	0.598	-3.0	0.9	2.4
O=C(NCCc1ccccc1)c1cnc2sccn2c1=O	i	3.8	3.4	-2.1	2.2	0.762	6.0	1.7	-13.5
COc1cc(N(C)C)ccc1C=c1c2ccccc2n2c1cc(-c1ccccc1)[n+]2C	i	-76.7	-48.8	44.7	-68.8	·	·	176.5	·
CC(C)(C)OC(=O)N1CCC(C(=O)Nc2ccc(C(=O)N3CCOCC3)cc2)CC1	i	6.6	4.5	-1.5	6.1	0.692	1.2	-1.8	-0.2
Cc1ccc(S(=O)(=O)Nc2ccc(NC(=O)CN3CCCCC3)cc2)cc1	·	·	·	·	-2.7	0.742	-0.1	0.4	0.6
O=C(CSc1ccc(-c2ccncc2)nn1)N1CCN(c2ccccc2)CC1	i	6.2	7.7	2.9	2.6	0.675	3.2	3.4	0.5
CC1CCC(NS(=O)(=O)c2ccc3c(c2)n(C)c(=O)c(=O)n3C)CC1 (stereo unspecified)	·	·	·	·	0.5	0.694	-29.3	0.8	0.0
Cc1nn(C)cc1/C=N\NC(=O)c1ccc2c(c1)c(C)c(C)n2Cc1ccccc1	·	·	·	·	-0.9	·	-2.2	0.8	·
CCc1ccc(CNCc2ccc(F)cc2)cc1	i	1.2	2.1	0.0	-4.4	0.703	·	0.9	0.7
CC1CC(C)CN(c2cc3c(cc2[N+](=O)[O-])C(=O)N(c2ccccc2)C3=O)C1 (stereo unspecified)	i	17.9	9.8	1.3	-0.8	0.695	-10.9	3.1	5.6
COC(=O)C1C(c2ccc(OC)cc2)Nc2nnc(C(F)(F)F)n2C1(C)O (stereo unspecified)	i	9.4	3.4	1.6	-1.3	0.727	9.6	3.0	4.4
CCc1nc(N)c(C#N)c(-c2ccccc2OC)c1C	·	·	·	·	3.8	0.71	-2.0	2.7	-14.4
COc1ccc(/C=C/c2cc(O)cc(O[C@@H]3O[C@H](CO)[C@@H](O)[C@H](O)[C@H]3O)c2)cc1O	i	-2.3	-4.7	0.1	·	·	·	0.2	·
O=C(Nc1nc2ccccc2n1CCN1CCCCC1)C1CCCCC1	·	·	·	·	-7.2	0.73	·	-0.1	1.5
Cc1ccc(S(=O)(=O)NCC(=O)Nc2ccc3c(c2)OCO3)cc1	i	2.9	0.1	1.8	4.7	0.664	-13.2	-1.4	1.2
CC(C)(C)c1ccc(-c2ncccc2O)cc1	i	-11.8	-16.0	-2.4	-10.3	0.676	?	0.0	-49.1
CCn1c(SCC(=O)NC2CCCCC2)nnc1-c1cccnc1	i	11.4	9.2	-0.3	-1.2	0.692	-3.9	0.5	3.1
O=C(O)C1(c2ccccc2)CCN(S(=O)(=O)c2ccccc2)CC1	i	-1.1	1.1	-4.6	22.3	0.688	·	3.4	0.3
O=C(OCC(=O)c1ccc(Cl)s1)c1ccccn1	i	-15.5	-20.8	-3.9	-1.6	0.67	-25.3	-0.2	0.6
Cc1cc(Cl)ccc1OCCCC(=O)N1CCN(C(=O)c2ccco2)CC1	·	·	·	·	-16.7	0.701	-1.2	0.1	1.0
O=C(CCCn1c(SCC(=O)NCC2CCCO2)nc2ccccc2c1=O)NCc1ccccc1 (stereo unspecified)	·	·	·	·	-4.5	0.676	-6.7	0.2	4.0
Cc1ccc(C(=O)NC(=S)NCc2cccnc2)c(C)c1	i	-25.6	-31.1	-0.5	-13.0	0.694	-2.9	-2.9	4.2
CCCCS(=O)(=O)N1CCC(C(=O)Oc2ccccc2OC)CC1	i	-10.7	-10.0	-5.6	0.2	0.63	7.6	-1.4	2.1
Cc1ccc(-c2nnc3ccc(SCC(=O)Nc4cc(C)on4)nn23)cc1	·	·	·	·	-9.3	0.712	·	0.4	-13.6
CCCC(=O)Nc1nnc(-c2cccc(OCC)c2)s1	·	·	·	·	-2.1	0.74	-9.1	-4.4	-2.6
Cc1cccc2nc3c(nc12)-c1ccccc1C3=O	i	-5.4	0.9	-2.3	1.5	0.723	-5.3	-1.1	6.6
O=C(COC(=O)c1ccc([N+](=O)[O-])o1)Nc1cccc2ccccc12	i	5.5	10.4	0.6	5.7	0.618	-16.7	-1.8	7.1
O=C(Nc1cc(S(=O)(=O)N2CCOCC2)ccc1OCC(F)(F)F)C1=COCCO1	i	5.5	2.7	-1.0	0.9	0.652	0.9	1.5	0.4
COc1ccc(OC)c(NC(=O)CCNC(=O)Cn2cnc3ccccc3c2=O)c1	i	6.7	17.3	-1.6	1.0	0.669	15.0	-2.5	-0.9
N#Cc1c(-c2ccccc2)ccnc1N1CCOCC1	i	-13.1	-11.1	-1.3	-4.0	0.688	-3.5	-3.4	-63.0
Cn1c(N2CCCCC2)nc2c1c(=O)n(Cc1cccc(Br)c1)c(=O)n2C	·	·	·	·	-22.1	0.658	·	-1.4	2.7
Cc1ccccc1OCC(=O)OCC(=O)NCc1cccs1	·	·	·	·	-1.1	0.688	·	-0.9	1.7
C/C(=N\NC1=N[C@H]2CS(=O)(=O)C[C@H]2S1)c1ccccc1	i	16.8	13.9	2.3	2.1	·	0.3	1.8	·
Cc1ccc(C)c(S(=O)(=O)NCC(c2ccc3c(c2)OCO3)N2CCOCC2)c1 (stereo unspecified)	·	-1.6	-4.8	-0.8	1.2	0.694	-3.4	1.5	-1.4
O=C1[C@@H]2[C@H](C(=O)N1Cc1ccco1)[C@H]1C=C[C@@H]2C1	·	·	·	·	5.9	0.727	-4.9	0.8	0.4
CC(=O)Nc1ccc(NC(=O)C(C)OC(=O)c2ccc3c(c2)OCCO3)cc1 (stereo unspecified)	i	3.4	0.8	-3.2	1.9	0.669	·	2.3	3.0
CCOC(=O)CCc1c(C)c2ccc(OCc3cc([N+](=O)[O-])ccc3OC)cc2oc1=O	·	·	·	·	-7.4	0.766	-3.4	2.0	-6.7
CCn1c(C)c(C(C)=O)c(N2CCN(C(c3ccccc3)c3ccccc3)CC2)nc1=S	i	-2.5	-1.4	-1.9	-11.9	0.694	1.1	0.2	4.2
CC(=O)NN1C(=O)/C(=C2/Sc3ccc(Cl)cc3N2C)SC1=S	i	8.0	16.0	1.0	-1.6	0.654	-16.4	3.6	2.0
CCOC(=O)C1=C(Cc2ccc(C)cc2)C(=O)c2ccccc2C1=O	i	-5.9	-69.8	-9.0	·	·	2.1	·	·

(next part)
Compound	FGF22 binding	rRNA inh HTS	rRNA inh HTS OD600	rRNA inh HTS RFP	Beta2AR agonist	E coli growth	ALR H2O2 inh	HNF4A DNA FP	UCH37 DUB inh
CC(=O)c1cc(F)c(N2CCCCCC2)cc1C	·	·	·	·	-8.6	0.736	1.8	5.8	5.4
N#C/C(=C(/O)c1ccc(-c2cccc([N+](=O)[O-])c2)o1)c1nc2ccccc2s1	i	-28.4	-30.5	-4.5	-3.5	0.647	·	-10.7	12.1
Cc1onc(-c2c(Cl)cccc2Cl)c1C(=O)N1C(C)CCCC1C (stereo unspecified)	i	-13.0	-16.5	-0.6	1.7	0.614	-4.3	-0.5	3.1
Cn1c(SCc2ccc(Cl)cc2)nnc1-c1ccc2nonc2c1	i	10.7	13.1	-3.1	-8.6	0.655	4.7	-5.6	-100.5
O=C(COc1ccc(C(=S)N2CCOCC2)cc1)N1CCCC1	·	·	·	·	-3.9	0.711	-0.9	0.3	0.4
O=Cc1cccnc1SCc1ccccc1	i	10.0	12.7	3.0	22.5	0.701	-2.0	0.7	6.0
N#CNC(=Nc1cccc(Cl)c1)Oc1ccccc1	i	8.4	2.2	3.8	5.4	0.675	3.8	1.1	-0.3
OC1CCN(c2c3c(nc4cc(-c5ccc(Cl)cc5)nn24)CCC3)CC1	·	·	·	·	-0.1	0.748	1.3	4.3	-35.0
COc1ccc(C(=O)NNC(=O)C(Cc2ccc(O)cc2)NC(=O)c2ccccc2NC(=O)c2ccc(OC)cc2)cc1 (stereo unspecified)	·	·	·	·	2.0	0.732	51.1	-1.8	-54.4

Source: PubChem (several laboratories)
